# ALR inh: blocks human ALR sulfhydryl oxidase activity. P55789. purified ALR, DTT oxidation, H2O2 HRP-luminol luminescence. inhibition, % (test concentration not listed). hit rate 3.8% among 290,000. AID 485317;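 active = mean and each replicate at 75% or more; inconclusive = only one of the two met; inactive = neither met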;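 also: stock transfer was 7.5 nL into about 7.5 µL; 0% = neutral wells and 100% = wells with inactivated enzyme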
# Target sequence (P55789 whole entry, looked up): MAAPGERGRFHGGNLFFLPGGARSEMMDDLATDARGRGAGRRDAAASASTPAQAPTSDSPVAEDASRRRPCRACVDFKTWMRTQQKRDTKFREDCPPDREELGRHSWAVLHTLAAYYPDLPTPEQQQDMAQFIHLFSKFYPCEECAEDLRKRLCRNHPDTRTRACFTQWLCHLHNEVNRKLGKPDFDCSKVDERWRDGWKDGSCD
# Beta2AR agonist: agonists of human beta-2 adrenergic receptor inducing internalization; hit rate 0.43% among 340,000; response, % (concentration not given with the values); AID 504454; P07550; Am2.2-beta2AR cells, FAP receptor internalization, flow cytometry; reference of the scale not given here;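 active = response above a set limit, near 3 SD of response in nonfluorescent compounds, cut at about 42% in these data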;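 also: stock transfer was 100 nL into about 11 µL; a reference agonist was the positive control; negative values mostly stem from fluorescent compounds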
# Target sequence (P07550 whole entry, looked up): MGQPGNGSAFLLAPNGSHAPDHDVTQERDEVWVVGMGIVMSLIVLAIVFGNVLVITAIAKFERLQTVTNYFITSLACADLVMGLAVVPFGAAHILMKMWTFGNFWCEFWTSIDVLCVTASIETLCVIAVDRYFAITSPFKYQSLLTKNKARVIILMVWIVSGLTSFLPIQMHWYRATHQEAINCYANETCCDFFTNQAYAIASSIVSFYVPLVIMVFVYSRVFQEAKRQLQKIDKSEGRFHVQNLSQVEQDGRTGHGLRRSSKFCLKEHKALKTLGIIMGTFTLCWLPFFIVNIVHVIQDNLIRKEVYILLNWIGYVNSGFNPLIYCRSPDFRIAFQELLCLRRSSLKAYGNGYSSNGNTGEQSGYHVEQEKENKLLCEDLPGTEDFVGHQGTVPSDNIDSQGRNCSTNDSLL
# HNF4A DNA FP: change in binding of human HNF4 alpha to DNA; hit rate 0.3% among 360,000; activity change, % at 10 µM; AID 1224865; HNF4a-FITC DNA binding, fluorescence polarization, 1 h; in the data active = activity change above about 30%, passing the limit was not always enough;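 also: controls were the assay level and a saturating level of protein; the project sought stronger binding though the title names inhibitors; some compounds called inactive have numbers as strong as hits; positive values seem to mean higher polarization but the record does not say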
# UCH37 DUB inh: inhibitors of human deubiquitinating enzyme UCH37. Q9Y5K5. hit rate 0.33% among 330,000. inhibition, % (concentration not given with the values). purified proteasome/UCH37, Ub-AMC cleavage fluorescence;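 active = mean of two replicates above 20%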;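 also: 0% = compound-free wells with enzyme and 100% = wells lacking proteasome; stock transfer was 100 nL into about 20 µL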
# Target sequence (Q9Y5K5 whole entry, looked up): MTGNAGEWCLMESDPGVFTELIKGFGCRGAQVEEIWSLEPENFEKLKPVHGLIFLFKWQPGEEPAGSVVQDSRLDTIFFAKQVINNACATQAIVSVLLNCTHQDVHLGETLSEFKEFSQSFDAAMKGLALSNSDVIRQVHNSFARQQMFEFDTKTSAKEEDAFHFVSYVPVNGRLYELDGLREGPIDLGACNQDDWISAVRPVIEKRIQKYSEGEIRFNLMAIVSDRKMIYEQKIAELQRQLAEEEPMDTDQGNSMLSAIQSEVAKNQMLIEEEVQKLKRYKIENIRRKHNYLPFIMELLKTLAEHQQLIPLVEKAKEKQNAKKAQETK
#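 Assay system: Proteasome-bound UCH37. Buffer or medium: pH 7.4 Tris-HCl (50 mM) with ovalbumin, ATP-MgCl2, DTT. Incubation: 30 min preincubation with enzyme, 25 min cleavage at room temperature. Measured by: fluorescence, ex 355 nm, em 460 nm. Read-out basis: percent inhibition. Control set: wells without proteasome as full block, compound-free enzyme plus substrate as uninhibited.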
# FGF22 binding: shifts melting point of recombinant human FGF22; recombinant FGF22 thermal shift, SYPRO orange fluorescence; percent of sucrose octasulfate shift, DMSO zero; hit rate 1.5% among 340,000; Q9HCT0; calls only at 9.99 µM;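 active = melting point raised past a set limit in the mean and every replicate; inconclusive = no clear call; three in four hits are not shown here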
# LANA-H2B inh: blocks KSHV LANA binding to histone H2A/H2B | Q9QR71 | cell-free LANA-H2A/H2B peptide, fluorescence polarization | inhibition, % (test concentration not listed) | hit rate 0.6% among 320,000; in the data active = inhibition mostly above about 10%, no sharp cut-off; inactive = mostly below about 6.7%;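 also: stock transfer was 7.5 nL into about 10 µL; 0% = median of vehicle wells and 100% = median of positive control wells; one replicate is shown; the record names a cut of 25% in any replicate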
# Ecoli growth: blocks Escherichia coli growth | OD600 absorbance (test concentration not listed) | OD600, 23 h; hits give low values | AID 1053175 | hit rate 0.21% among 330,000;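 active = OD600 absorbance below the run mean of sample wells minus 3.6 SD, in any replicate, cut at about 0.56 in these data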;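 also: stock transfer was 300 nL into about 60 µL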
# The depositor's hits bear a star; i = inactive; ? = inconclusive; / = not tested or not shown. These rows are one share of the data, so the mix of outcomes need not match the whole.
SMILES,ALR inh,Beta2AR agonist,HNF4A DNA FP,UCH37 DUB inh,FGF22 binding,LANA-H2B inh,Ecoli growth
CSc1nnc(C)c(=O)n1COC(=O)c1ccc([N+](=O)[O-])cc1,-12,-4,0.9,5.0,i,6.9,0.66
CCOc1ccc(-n2ccn(CC(=O)NCCc3ccccc3)c(=O)c2=O)cc1,/,-3,-1.5,-20,i,/,0.71
COc1ccc(NC(=O)C2=NN(C3CCS(=O)(=O)C3)C(=O)CC2)cn1 (stereo unspecified),-100,-7,-4.8,7.3,i,2.6,0.68
COCCn1c(=S)[nH]c2ncccc2c1=O,58,1,4.2,2.7,/,0.7,0.74
O=c1[nH]c(CN2CCN(c3ccccc3)CC2)nc2scc(-c3ccccc3)c12,/,-9,12,0.6,i,-4.0,0.68
c1ccc(-c2nc(N3CCOCC3)c3ccccc3n2)nc1,4,-11,-3.3,10.0,/,-3.4,0.67
Cc1cc(NC(=O)COC(=O)c2cccc(S(=O)(=O)N(C)C3CCCCC3)c2)no1,-3,6,0.1,6.2,i,-1.5,0.69
Cc1ccc(S(=O)(=O)NCCSc2nnnn2C)cc1,/,1,0.6,3.1,/,-0.1,0.7
CC(C)(C)CC(=O)NCCCN1CCOCC1,14,4,2.6,2.7,i,/,0.69
CNS(=O)(=O)c1cn(CC(=O)NCc2ccccc2OC)cc1S(=O)(=O)NC,-7,-1,-0.8,0.2,i,3.4,0.64
COc1cc(C=C(c2nc3ccccc3s2)c2nc3ccccc3s2)cc(OC)c1O,/,-6,-1.3,5.3,/,2.6,0.68
CC(NCC(O)COC1CCC(C(C)(C)C)CC1)c1ccccc1 (stereo unspecified),-5,24,-0.1,4.2,i,8.7,0.64
O=C(CSCC(=O)Nc1cccc2ccccc12)Nc1cccc2ccccc12,?,0,1.7,-6.5,i,-0.2,0.7
CN(C)c1ccc(C=NC(CO)C(O)c2ccc([N+](=O)[O-])cc2)cc1 (stereo unspecified),-6,1,-5.3,11,i,-2.7,0.6
CCCc1cc(=O)[nH]c(SCc2nc3ccccc3s2)n1,6,3,-1.2,1.1,/,6.5,0.73

# Retrieved by compound from the entries so far, five records:
SMILES,ALR inh,Beta2AR agonist,HNF4A DNA FP,UCH37 DUB inh,FGF22 binding,LANA-H2B inh,Ecoli growth
CSc1nnc(C)c(=O)n1COC(=O)c1ccc([N+](=O)[O-])cc1,-12,-4,0.9,5.0,i,6.9,0.66
Cc1ccc(S(=O)(=O)NCCSc2nnnn2C)cc1,/,1,0.6,3.1,/,-0.1,0.7
CNS(=O)(=O)c1cn(CC(=O)NCc2ccccc2OC)cc1S(=O)(=O)NC,-7,-1,-0.8,0.2,i,3.4,0.64
Cc1cc(NC(=O)COC(=O)c2cccc(S(=O)(=O)N(C)C3CCCCC3)c2)no1,-3,6,0.1,6.2,i,-1.5,0.69
O=c1[nH]c(CN2CCN(c3ccccc3)CC2)nc2scc(-c3ccccc3)c12,/,-9,12,0.6,i,-4.0,0.68

# Carrying on.
SMILES,ALR inh,Beta2AR agonist,HNF4A DNA FP,UCH37 DUB inh,FGF22 binding,LANA-H2B inh,Ecoli growth
CC1CC(C)CN(S(=O)(=O)c2ccc(C(=O)N3CCOCC3)cc2)C1 (stereo unspecified),-14,5,0.6,-0.6,i,1.7,0.7
Cc1ccc(OCc2cc(C(=O)N(CCO)Cc3cccs3)no2)cc1C,-17,-7,-5.6,/,i,-0.2,/
O=C(CNC(=S)N(Cc1ccccc1)Cc1cccnc1)N1CCOCC1,1,2,2.3,1.5,i,3.3,0.68
COc1ccc(C(=O)c2cc([N+](=O)[O-])ccc2N2CCN(C)CC2)cc1,4,-2,-1.1,6.0,i,3.0,0.63
O=C1/C(=C\c2ccc(O)cc2)SC(=S)N1c1cccnc1,-10,-1,17,/,i,-8.2,/
CC(=O)c1sc(-c2ccccc2)cc1NS(=O)(=O)c1ccccc1,-6,8,29,-7.9,i,1.0,0.7
O=C(Nc1nc(-c2ccc(S(=O)(=O)N3CCCC3)cc2)cs1)c1cccs1,-22,-1,3.1,1.2,/,0.4,0.74
O=C(NCc1cccc(C(F)(F)F)c1)C1CCCN(c2ncccn2)C1 (stereo unspecified),-3,-3,-1.6,0.0,/,131*,0.64
COCCNC(=O)CN1N=C(c2ccc(C)cc2)CCC1=O,-13,7,-1.6,1.1,i,0.2,0.7
O=C1OCCN1C(=O)[C@H]1[C@H](c2ccc(F)cc2)C(c2ccccc2)=NN1c1ccccc1,/,3,0.8,-80,i,/,0.71
CCOc1ccc2oc(C(=O)NC3CCN(Cc4ccccc4)CC3)c(C)c2c1,1,-6,-4.5,-9.6,i,0.5,0.67
Cc1nn(-c2ccccc2)c(C)c1[N+](=O)[O-],-3,-1,-1.0,5.0,i,-0.7,0.63
COc1ccc(C(=O)O)cc1S(=O)(=O)NCc1cccnc1,-6,9,-2.5,5.1,i,-6.8,0.68
O=C(O)c1ccc(NS(=O)(=O)c2cccc(C(=O)Nc3ccccc3[N+](=O)[O-])c2)cc1,/,11,-2.3,2.4,i,/,0.67
Cc1cc(C)c(S(=O)(=O)N2CCCC2=O)c(C)c1N(C)S(C)(=O)=O,-5,1,-3.1,3.2,i,0.8,0.67
O=C(Nc1ccon1)Nc1ccc(F)cc1F,-13,0,2.5,1.7,i,4.3,0.71
CCOC(=O)N1CCN(C(=O)CCC2CCCC2)CC1,-2,-1,0.0,-0.3,i,-3.1,0.68
COCCn1c(C)cc2c(c1=O)C(c1ccco1)C(C#N)=C(N)O2 (stereo unspecified),10,1,-1.9,-35,/,0.5,0.68
O=C(COC(=O)Cn1nnc2ccccc21)NC1CCCC1,5,-3,1.9,0.9,i,-3.6,0.62
S=C(NCCNC(=S)Nc1ccccc1)Nc1ccccc1,-12,-2,-0.9,-0.7,i,1.6,0.67
C[C@@H]1C=C(C(=O)NCc2nc3ccccc3[nH]2)O[C@H](OCCCCO)C1,-1,-6,-4.0,0.0,/,2.6,/
Cc1ccc(NC(=O)c2cccc(Cl)c2)nc1,-9,-6,0.6,3.2,/,0.3,0.74
COc1ccc(-c2[nH]ncc2CN(C)CCN2CCOCC2)cc1F,-5,4,2.8,4.3,i,-0.8,0.73
COc1ccc(NC(=O)c2cccc(N3C(=O)C4CCC(C)CC4C3=O)c2)c(OC)c1 (stereo unspecified),-20,3,-0.8,1.4,i,5.6,0.65
N#C/C(=C\c1cn(Cc2ccc(C#N)cc2)c2ccccc12)C(=O)NCc1cccs1,4,3,-1.5,-34,i,-3.3,0.73
CC(OC(=O)C1CC(O)CN1S(=O)(=O)c1ccccc1[N+](=O)[O-])C(=O)N1CCCCC1 (stereo unspecified),-1,4,5.8,2.2,i,-0.5,0.7
Cc1cccn2c(CNCCCn3ncc4ccccc43)c(C(=O)N3CCCCC3)nc12,-19,6,-2.1,0.8,i,4.5,0.67
Cc1nc(N)sc1-c1csc(Nc2cccc(O)c2)n1,47,11,17,4.0,i,-2.1,0.63
Cc1cc(C)n(CCSCC(=O)O)n1,11,-4,-1.6,0.5,i,-1.3,0.61
c1ccc(Oc2cc(-c3ccccc3)ncn2)cc1,-2,1,2.7,4.7,/,-0.2,0.79
CC1=C(C(=O)Nc2ccc(C)cc2C)C(c2ccc(C)o2)NC(=S)N1 (stereo unspecified),2,-4,-0.4,1.8,/,3.2,0.65
CC(C)c1ccccc1NC(=S)NC1CCCCC1,-1,3,4.3,-3.6,i,-1.8,0.65
CCOC(=O)c1cc2sc(C)cc2n1CC(=O)N1CCN(C(=O)c2ccco2)CC1,99*,0,-1.7,0.9,/,0.0,0.71
O=c1cc(NCc2ccccc2)nc2n1CCCS2,-1,-1,1.6,1.5,/,2.9,0.66
Cc1sc2ncnc(Sc3nnnn3-c3ccc(Cl)cc3)c2c1C,-3,-10,0.0,-1.8,/,1.6,0.69
Cc1ccc(NC(=O)Cc2ncon2)cc1Cl,-15,-1,-1.5,1.2,i,2.6,0.66
CCOC(=O)/C=C/C(=O)Nc1ccc(S(=O)(=O)Nc2cc(C)on2)cc1,2,-8,3.3,-0.7,i,4.9,0.65
COc1cc2ccccc2cc1C(=O)Nc1ccncc1,-5,8,-0.5,-29,i,-2.3,0.69
CCc1ccccc1NC(=O)CCS(=O)(=O)c1ccc2c(c1)CCCN2C(C)=O,-9,3,-4.3,4.3,i,5.3,0.68
COC(=O)Nc1ccc(S(=O)(=O)N2CCCCC2)cc1,-5,14,-0.6,3.9,/,0.8,0.72
O=C(COc1ccccc1-c1ccccc1)NCc1cccc(Cl)c1,-1,-8,-1.6,0.2,i,6.3,0.69
CC(=O)n1nc(-c2ccco2)nc1SCc1ccccc1,61,-10,1.6,5.3,/,-4.0,0.71
COc1ccc(-c2nn(CCC(=O)O)cc2/C=N/NC(N)=S)cc1,/,14,5.8,/,i,19*,/
COCCCNC(=O)CN(c1cc(Cl)ccc1OC)S(=O)(=O)c1ccc(C)c([N+](=O)[O-])c1,/,-7,-2.4,-0.3,i,-3.4,0.67
CCOc1cc(/C=N\Nc2ncc(F)c(N3CCOCC3)n2)ccc1Oc1nc(Cl)ncc1F,-8,16,-1.3,/,i,-5.3,/
Cn1cc(C(=O)C(=O)NC2CC2)c2ccccc21,/,4,1.9,/,i,/,/
CC(=O)OCC1OC(Nc2cccc(C)c2)C(OC(C)=O)C(OC(C)=O)C1OC(C)=O (stereo unspecified),-5,3,2.5,1.6,/,-3.5,0.69
CCN(CC)S(=O)(=O)c1ccc(Cl)c(C(=O)N2CCc3ccccc32)c1,/,7,0.2,4.6,/,-10,0.71
COc1cc(CCC(=O)OCC(=O)Nc2cccc(S(N)(=O)=O)c2)cc(OC)c1OC,-4,-7,-0.9,3.2,i,1.1,0.67
CN(C)c1ccc(/C=[N+](\[O-])C2N(c3ccccc3)C(=S)SC2(C)C)cc1 (stereo unspecified),9,6,4.6,4.8,i,-4.3,0.71
C[C@@]12CCC3[C@@](CC[C@@H]4[C@](C)(C(=O)O)CCC[C@@]34C)(C[C@H]1O)C2 (stereo partly specified),-4,-12,1.4,0.3,i,2.9,0.68
CS(=O)(=O)Nc1ccc(C(=O)Nc2ccc3c(c2)OCO3)cc1,-6,5,-1.4,3.1,i,-8.9,0.7
CCC(C)NC(=O)CSc1nnc(-c2ccncc2)n1-c1ccc(OC)cc1 (stereo unspecified),-16,1,1.4,4.2,/,-5.1,0.72
CSc1nc(C)c2c(n1)N(c1ccc(C(F)(F)F)cc1)CC2,-2,-2,0.9,-4.7,/,3.8,0.74
C[C@]12c3[nH]c4ccccc4c3CCN1C(=O)C(CC(=O)NCCc1ccccn1)C[C@@H]2C(=O)N1CCCCC1 (stereo partly specified),/,-6,-2.5,5.1,i,-1.9,0.71
O=S(=O)(Nc1nc2ccccc2nc1-[n+]1cccc(N=C([O-])c2ccc(Cl)cc2)c1)c1ccccc1,-4,/,/,6.2,i,-8.3,0.65
COc1ccc(CNC(=O)CN(C(=O)c2snc(C(N)=O)c2N)c2ccc(OC)c(OC)c2)cc1,/,2,4.1,3.2,i,0.7,0.72
CNC(=O)COC(=O)c1cc(-c2ccccc2)nn1-c1ccccc1,-6,8,-4.5,-0.7,i,-2.9,0.7
COC(=O)C1=C(C)N(C)C(C)=C(C(=O)OC)C1c1ccsc1,-14,3,0.6,5.5,/,9.2,0.73
CCOc1ccc(/C=C/C(=O)Nc2cccc(C(C)=O)c2)cc1,-7,5,0.2,0.8,/,1.2,0.7
O=C(CCC(=O)N1CCN(c2ccc(C(F)(F)F)cn2)CC1)c1cccs1,-3,1,1.3,-0.7,i,4.7,0.64
COc1ccc(CN(C)Cc2cc(=O)n3ccsc3n2)c(OC)c1OC,/,1,1.3,-4.2,i,-1.4,0.72
COc1ccc(/C=N/NC(=O)c2ccc(N(C)S(=O)(=O)c3ccccc3)cc2)cc1OC,-18,2,0.7,/,/,-0.8,/

# Source: PubChem
